Lassa entry inh: Lassa virus entry inhibition. Potency, µM (series often up to 37.9 µM), without a hit: at the top dose activity change, negative = inhibition, most hits filed as inhibitors. hit rate 1.2% among 300,000. AID 540256. Lassa virus pseudotype entry inhibition, cell reporter; control for the full effect not named in the record; active means well fitted inhibition curve with a large enough effect; inconclusive means small, poorly fitted or top-dose-only effect, or effect the other way; inactive means flat fitted curve, though single readings scatter; tested in HEK293 cells; note: % is set by controls: 0 for no effect and ±100 for the full control effect; nearly all actives have a fitted effect of over 50% in size; luciferase read-out
StopGo reporter: lowers the luciferase signal of an FMDV 2A StopGo reporter; human cells with a luciferase reporter of 2A StopGo recoding; control for the full effect not named in the record; Potency, µM (top dose mostly 57.9 µM), without a hit: top-dose signal change, negative = less light; hit rate 1.2% among 410,000; AID 1159524; active = well fitted falling curve with a large enough effect; inconclusive = small, poorly fitted or top-dose-only effect; inactive = no such curve, though single readings can be large or run the other way; tested in HEK293T cells; note: % is set by controls: 0 for no effect and ±100 for the full control effect; nearly all actives have a fitted effect of over 45% in size; luciferase light after 4 h
MARV entry inh: Marburg virus entry inhibition | Marburg virus pseudotyped entry inhibition, cell reporter; control for the full effect not named in the record; about a third of the inactives were read at about 46 µM | Potency, µM (titrated, usually from 37.8 µM), without a hit: at the highest dose activity change, negative = inhibition, usual class: inhibitors | hit rate 1.8% among 300,000 | AID 540276; active = well fitted inhibition curve with a large enough effect; inconclusive = small, poorly fitted or top-dose-only effect, or effect the other way; inactive = flat fitted curve, though single readings scatter; tested in HEK293 cells; about a fifth of its hits are not listed in these tables; note: % is set by controls: 0 for no effect and ±100 for the full control effect; luciferase read-out
Cruzain inh Det: blocks cruzain activity in presence of Triton detergent. purified cruzain, Z-FR-AMC fluorescence, 0.01% Triton. Potency, µM, inactives show max response, negative = inhibition, usual class: inhibitors. hit rate 0.43% among 200,000. AID 1478; active = well fitted curve in the direction sought with a large enough effect; inconclusive = small, poorly fitted or top-dose-only effect, or another doubt; inactive = no such curve, though single readings can be large; an effect the other way counts as inactive or inconclusive;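 note: plate controls were neutral wells for no effect and buffer without enzyme for full effect; nearly all actives have a fitted effect of over 40% in size; top concentration of the series not given in the record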
Target sequence (P25779 123-467 limits assumed): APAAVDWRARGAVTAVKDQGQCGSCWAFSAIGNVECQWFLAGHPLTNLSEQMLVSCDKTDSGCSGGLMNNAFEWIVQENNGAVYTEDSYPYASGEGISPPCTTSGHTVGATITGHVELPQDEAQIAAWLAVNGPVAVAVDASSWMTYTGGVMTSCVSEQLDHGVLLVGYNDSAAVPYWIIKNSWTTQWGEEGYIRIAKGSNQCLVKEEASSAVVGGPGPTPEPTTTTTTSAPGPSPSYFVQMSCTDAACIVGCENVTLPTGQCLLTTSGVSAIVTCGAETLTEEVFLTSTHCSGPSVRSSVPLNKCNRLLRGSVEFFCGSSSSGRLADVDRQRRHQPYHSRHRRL
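15 min RT preincubation of 1.5 nM cruzain with compound, then 2 uM Z-FR-AMC added; kinetic AMC fluorescence, 60 s delta. Triton X-100 0.01%, pH 5.5.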
Cruzain noTriton: blocks cruzain activity in detergent-free assay; P25779; purified cruzain, Z-FR-AMC fluorescence, no detergent; Potency, µM, without a hit: max response, negative = inhibition, usual class: inhibitors; hit rate 2.3% among 200,000; AID 1476; active = well fitted curve in the direction sought with a large enough effect; inconclusive = small, poorly fitted or top-dose-only effect, or another doubt; inactive = no such curve, though single readings can be large; an effect the other way counts as inactive or inconclusive;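 note: plate controls were enzyme without inhibitor for no effect and buffer without enzyme for full effect; nearly all actives have a fitted effect of over 40% in size; top concentration of the series not given in the record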
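Detergent-free condition (0.00005% Triton X-100) in acetate buffer pH 5.5 with DTT. 1.5 nM enzyme and compound were pre-mixed 15 min, then 2 uM Z-FR-AMC substrate added; reaction progress from fluorescence change between first and third reads (60 s).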
SARS PLpro yeast: blocks SARS-CoV papain-like protease in a yeast assay. S. cerevisiae expressing SARS-CoV PLpro, growth rescue; control for the full effect not named in the record. Potency, µM (titrated, usually from 32.9 µM), for inactives: at the top dose activity, positive = growth rescue. hit rate 0.19% among 330,000; note: 0% is about no effect; nearly all actives have a fitted effect of over 55% in size; growth read by luminescence after 48 h
RE007 growth inh: less growth of the S. pombe RE007 Vpr strain | hit rate 0.21% among 360,000 | Potency, µM (highest dose often 92.2 µM), for inactives: at the highest dose activity change, negative = less growth | S. pombe RE007 Vpr strain, BacTiter-Glo ATP luminescence, 24 h; control for the full effect not named in the record | AID 651644; active = well fitted falling curve with a large enough effect; inconclusive = small, poorly fitted or top-dose-only effect; inactive = no such curve, though single readings can be large or run the other way;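 note: % is set by controls: 0 for no effect and ±100 for the full control effect; nearly all actives have a fitted effect of over 50% in size; the assay follows cell death caused by Vpr and the record does not say whether a fall means rescue or toxicity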
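Fission yeast strain RE007, carrying one chromosomally integrated HIV-1 vpr copy, was seeded at OD 0.01 in PMG+AL medium with 23 nL pinned compound. After 24 h at 30 °C and 99% humidity, viability was read by BacTiter-Glo luminescence.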
NS1 function inh: influenza NS1 inhibition; S. cerevisiae slowed by influenza A NS1, growth recovery by OD600; Potency, µM (titrated, usually from 46.1 µM), for the others: at the highest dose activity, positive = more growth; hit rate 0.4% among 270,000; note: actives are rising curves; nearly all actives have a fitted effect of over 50% in size
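A cell-based growth assay was used: compounds that relieve NS1-induced slow growth of budding yeast raise OD600. Assay medium was yeast nitrogen base with ammonium sulphate and -URA supplement, pH 6.0, with 2% galactose.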
Active calls of the source: *; ? = inconclusive; . = no result given; & = joins results of further samples; [ ] = remark or other dose. Unless noted, calls come from the whole dose curve; as a rule, active means well fitted rising curve with a large enough effect; inconclusive means small, poorly fitted or top-dose-only effect; inactive means no such curve, though single readings can be large or run the other way. Potency is the fitted concentration of half-maximal effect.

SMILES	Lassa entry inh	Cruzain noTriton	SARS PLpro yeast	RE007 growth inh	MARV entry inh	StopGo reporter	Cruzain inh Det	NS1 function inh
COc1ccc(N2CCN(C(CNS(=O)(=O)c3ccccc3)c3ccccc3)CC2)cc1 (stereo unspecified)	.	.	-4%	13%	.	-14%	.	12%
CCN(CCCNC(=O)c1nn(-c2ccc(OC)cc2)c(=O)c2c1c1ccccc1n2C)c1cccc(C)c1	9%[46.1 µM]	-15%	.	.	-14%[46.1 µM]	-16%	0.7%	.
FC(F)(F)c1cnc(NNC(=S)Nc2ccc(Cl)cc2)c(Cl)c1	?	-7%	-9%	15%	?	-26%	-3.9%	-29%
O=C(CCCc1c[nH]c2ccccc12)Nc1ncccc1O	.	.	4%	-9%	.	-15%	.	-11%
Cc1ccc(S(=O)(=O)NCCCNS(=O)(=O)c2ccccc2)cc1	.	.	-7%	12%	.	17%	.	10%
COc1cccc(-c2cc(C(=O)N3N=C(C)CC3(O)C(F)F)c3ccccc3n2)c1 (stereo unspecified)	.	.	-2%	-7%	-4%[46.1 µM]	-5%	.	.
Cc1coc2c(C)c3oc(=O)c(CCC(=O)N(C)CC(=O)O)c(C)c3cc12	.	.	-1%	13%	.	0%	.	-3%
O=C(CSC1=NS(=O)(=O)c2cc(Cl)ccc2N1)NCc1ccc(F)cc1	18%	.	-4%	-19%	31%	-2%	.	.
N=c1oc2ccccc2cc1C(=O)Nc1ccc(F)cc1	12%[46.1 µM]	.	2%	9%	21%&21%[46.1 µM]	?	.	0%
CCCCOC(=O)c1ccc(NC(=O)c2cnc3n(c2=O)CCS3)cc1	?	-7%	-2%	4%	?	?	0.5%	6%
CCN(CC)c1ccc(NC(=O)CN2C(=O)CC(C)(C)S(=O)(=O)c3ccccc32)c(C)c1	.	5%	0%	-10%	-7%	-23%	1.2%	-5%
Cc1ccc(NC(=O)CSc2nnc(Cc3cccn3C)n2-c2ccc(F)cc2)cc1	-6%	?	1%	-3%	-4%&-4%	0%	-2.6%	?
O=C1C2C3C=CC(C3)C2C(=O)N1c1nccs1 (stereo unspecified)	?	14%	6%	-4%	2%	-13%	0.8%	-7%
CCOC(=O)C1CCCCN1Cc1cn[nH]c1-c1ccc(F)cc1F (stereo unspecified)	.	.	0%	1%	.	-14%	.	-2%
COc1ccc(C(=O)OCC(=O)Nc2cccc(S(=O)(=O)NC3=NCCCCC3)c2)cc1[N+](=O)[O-]	5%	.	.	19%	?	-7%	.	.

Overlap with the part before: seven entries; new compounds follow.
SMILES	Lassa entry inh	Cruzain noTriton	SARS PLpro yeast	RE007 growth inh	MARV entry inh	StopGo reporter	Cruzain inh Det	NS1 function inh
N=c1oc2ccccc2cc1C(=O)Nc1ccc(F)cc1	12%[46.1 µM]	.	2%	9%	21%&21%[46.1 µM]	?	.	0%
CCCCOC(=O)c1ccc(NC(=O)c2cnc3n(c2=O)CCS3)cc1	?	-7%	-2%	4%	?	?	0.5%	6%
CCN(CC)c1ccc(NC(=O)CN2C(=O)CC(C)(C)S(=O)(=O)c3ccccc32)c(C)c1	.	5%	0%	-10%	-7%	-23%	1.2%	-5%
Cc1ccc(NC(=O)CSc2nnc(Cc3cccn3C)n2-c2ccc(F)cc2)cc1	-6%	?	1%	-3%	-4%&-4%	0%	-2.6%	?
O=C1C2C3C=CC(C3)C2C(=O)N1c1nccs1 (stereo unspecified)	?	14%	6%	-4%	2%	-13%	0.8%	-7%
CCOC(=O)C1CCCCN1Cc1cn[nH]c1-c1ccc(F)cc1F (stereo unspecified)	.	.	0%	1%	.	-14%	.	-2%
COc1ccc(C(=O)OCC(=O)Nc2cccc(S(=O)(=O)NC3=NCCCCC3)c2)cc1[N+](=O)[O-]	5%	.	.	19%	?	-7%	.	.
CCOC(=O)c1sc(C)c2c(=O)n(CC(=O)c3ccc(Br)cc3)nnc12	?	?	1%	-5%	-14%	-25%	-3.3%	10%
CCCCn1c(O)c(C(C)=NCCN2CCOCC2)c(=O)[nH]c1=O	-5%	1%	-8%	-8%	-13%	-7%	-2.6%	-1%
CCOc1ccc(-c2c(C)nn3c(C)c(C(=O)NCc4cccc(OC)c4)cnc23)cc1OCC	21%[46.1 µM]	3%	.	.	.	?	-3.8%	.
CC(=O)c1sc2c(c1OC(=O)c1ccccc1)c(=O)n(-c1ccccc1)c(=S)n2-c1ccccc1	15%[46.1 µM]	.	.	14%	4%	-12%	.	.
O=C(c1ccc2c(c1)OCO2)C1CCCN(Cc2ccc3cccc(F)c3n2)C1 (stereo unspecified)	-11%	.	0%	-7%	-23%[46.1 µM]	-28%	.	-1%
O[C@@H]1COC(Nc2ccc(N=Nc3ccccc3)cc2)C[C@@H]1O (stereo partly specified)	-24%	.	-3%	-2%	-28%	2%	.	-8%
Cc1ccc2c(c1C)NC(=O)C21N2CCCC2C(C(=O)c2ccc3ccccc3c2)C12C(=O)Nc1ccccc12 (stereo unspecified)	.	.	0%	4%	.	48%[activator]	.	22%
CCCCn1c(N)c(N(CCC(C)C)C(=O)C2CCCO2)c(=O)[nH]c1=O (stereo unspecified)	1%	.	-5%	2%	-1%	-13%	.	.
COc1cccc(C(=O)N2CCCCC2CCN2CCCCC2)c1 (stereo unspecified)	9%[46.1 µM]	-1%	.	.	2%[46.1 µM]	-6%	0.6%	.
CCOC(=O)/C(C#N)=C\c1ccco1	3%	-12%	5%	-11%	-1%	9%	-3.3%	7%
COc1ccc(C(=O)/C=C/C(=O)N(Cc2ccc3c(c2)OCO3)C(C(=O)NC2CCCCC2)c2ccncc2)c(O)c1 (stereo unspecified)	?	19%	-41%	8%	?	-10%	-7.6%	-8%
O=C(COC(=O)c1cc(Cl)ccc1Cl)NCCN1C(=O)CSC1=O	?	-7%	-13%	29%	?	-4%	-5.0%	-7%
COc1ccc(Cl)cc1NC(=O)CSc1nc(NS(=O)(=O)c2ccccc2)cc(=O)[nH]1	8%	.	2%	-6%	5%[46.1 µM]	0%	.	13%
CN(C)c1ccc(NC(=O)Cn2c(SCc3ccc(F)cc3)nc3cccnc32)cc1	?	5%	.	.	.	22%	0.5%	.
Cc1ccc(NC(=O)C(=O)NCc2ccccn2)cc1	-8%[46.1 µM]	.	-2%	2%	5%[46.1 µM]	44%[activator]	.	-2%

(next part)
SMILES	Lassa entry inh	Cruzain noTriton	SARS PLpro yeast	RE007 growth inh	MARV entry inh	StopGo reporter	Cruzain inh Det	NS1 function inh
Cc1cc(=O)[nH]c(SCC(=O)NC2CCCc3ccccc32)n1 (stereo unspecified)	.	.	-1%	14%	.	-4%	.	5%
CCOC(=O)c1cnc(-n2nc(C)cc2C)nc1NNc1ncc(-c2ccccc2)cn1	?	.	-1%	-26%	11µM*	-20%	.	11%
O=[N+]([O-])c1cc(C(F)(F)F)cc([N+](=O)[O-])c1Sc1n[nH]c(C(F)(F)F)n1	27%[46.1 µM]	.	-1%	-24%	1%[46.1 µM]	6.3µM*	.	-3%
C=CCOc1nc2c(c(=O)n(C)c(=O)n2C)n1C	21%	-4%	1%	3%	12%	-5%	0.4%	2%
O=C1NCCCC2c3cc(O)c4ccccc4c3OC12N1CCCCC1 (stereo unspecified)	.	21%	0%	.	-7%	.	-9.1%	10%
CC1CCCN(CCCNC(=O)c2ccc(CS(=O)(=O)Cc3cccc(Cl)c3)o2)C1 (stereo unspecified)	.	.	-2%	-2%	.	-18%	.	6%
CCN(CC)c1ccc(C(=O)Nc2ccccc2)cc1[N+](=O)[O-]	-24%	.	-4%	6%	?	0%	.	-39%
O=C(Nc1nnc(C2CCCO2)s1)c1cccs1 (stereo unspecified)	26%	?	-1%	-10%	19%	66%[activator]	3.7%	5%
O=C(Cn1nnc(-c2ccccc2NC(=O)c2ccccc2F)n1)NCc1ccco1	?	-14%	0%	3%	?	-27%	-0.3%	-22%
CCC1CC(CSc2ncn[nH]2)OC1=O (stereo unspecified)	9%	0%	4%	-4%	-1%	8%	4.2%	-4%
O=C(CCc1ccccc1)NCC(c1ccco1)N1CCc2ccccc21 (stereo unspecified)	?	.	-9%	4%	?	-14%	.	.
COc1ccc(CCN2C(=O)C3C4CCC(C4=C(C)C)C3C2=O)cc1OC (stereo unspecified)	7%	-2%	14%	-11%	?	-23%	-5.7%	1%
Cc1nn(CC#N)c(=O)n1N(C)c1ncc(C(F)(F)F)cc1Cl	0%	.	1%	19%	-4%[46.1 µM]	-11%	.	.
Cc1nc(Nc2ccc3c(c2)OCCO3)c2c(C)c(C)sc2n1	-4%	.	-6%	4%	-5%[46.1 µM]	0%	.	.
C/C(N)=C(/C#N)C(=O)COC(=O)c1cc(S(=O)(=O)N2CCCCC2)ccc1C	?	20%	4%	-6%	11%	-21%	0.4%	-9%

The list goes on.
SMILES	Lassa entry inh	Cruzain noTriton	SARS PLpro yeast	RE007 growth inh	MARV entry inh	StopGo reporter	Cruzain inh Det	NS1 function inh
CCOC(=O)CC(=O)Nc1c(C)cc(C)cc1C	29%[14.3 µM]	4%	3%	5%	-3%	16%	6.5%	1%
Cc1cccc2cc(CN(CC3CCCO3)C(=O)NC3CCCCC3)c(=O)[nH]c12 (stereo unspecified)	-13%	-1%	-4%	-9%	-4%	-3%	-0.3%	-1%
O=C(Cn1[nH]c(=O)c2ccccc2c1=O)N1CC=C(c2ccccc2)CC1	3%	-8%	-3%	0%	-5%	?	-2.8%	-16%
Cc1cccc(N(C(=O)CCC(=O)Nc2ccccn2)C(C(=O)NC(C)C)c2ccc(O)cc2)c1 (stereo unspecified)	12%	3%	4%	8%	11%&11%	-16%	6.8%	-9%
CCOP(=O)(OCC)C(c1ccccc1)N(C)C=O (stereo unspecified)	-13%[14.3 µM]	12%	2%	6%	-2%	-16%	-1.4%	29%
O=C(CCCc1ccccc1)N=C1SC2CS(=O)(=O)CC2N1c1ccccc1F (stereo unspecified)	-1%[46.1 µM]	.	0%	7%	8%[46.1 µM]	-4%	.	-2%

Screening results from PubChem BioAssay.
